SW480 rerep: DNA re-replication induction in SW480 cells; SW480 DNA re-replication, Hoechst DNA content imaging, 48 h; Potency, µM (series often up to 46.1 µM), without a hit: at the top dose re-replication activation, actives largely listed as activators; 1.8% of 340,000 active; note: potency is the fitted concentration of half-maximal effect; % of control where 0% means no effect; nearly all actives have a fitted effect of over 55% in size
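First, 250 cells per well were seeded. Next, compound or vehicle (23 nL) was pinned in, plates sat 48 hr at 37 C. Finally Hoechst was added for 40 min before fluorescence scanning.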
IL-1B inflam inh: inhibitors of inflammasome signaling (IL-1 beta secretion). THP-1 LPS/ATP IL-1B secretion, AlphaLISA, 16 h; stronger effect = lower value. activity change, % at 57.5 µM. 4.7% of 360,000 active. AID 743279; in the data active = activity change below about -50%; inconclusive = mostly about -30% to -49%; note: % is set by controls: 0 for no effect and ±100 for the full control effect
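Secreted IL-1B measured by AlphaLISA bead assay after 16 h compound exposure of THP-1 cells; compounds (final up to 57.5 uM) added 1 h before LPS (250 ng/mL) and ATP (1.25 mM) stimulation; lower signal means less secretion.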
HT1080 IDH1KD tx: toxicity to HT-1080 IDH1 knockdown cells (counter line); HT-1080 IDH1 knockdown viability, ATP luminescence, 48 h; Potency, µM (series often up to 46.1 µM), without a hit: at the highest dose activity, negative = toxicity, hits mostly cytotoxic; AID 686971; 2% of 360,000 active;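 note: potency is the fitted concentration of half-maximal effect; 0% = DMSO wells and -100% = cell-free medium wells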
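% activity derives from luminescence (CellTiter-Glo), normalised to DMSO and no-cell wells. HT-1080-IDH1KD cells, 750/well, had 48 h compound exposure at 37 °C.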
ATXN viability: viability counter-screen for ATXN expression inhibitors; S2 cells (HEK-293 line with an ATXN2-luciferase reporter) viability, CellTiter-Fluor protease fluorescence, 24 h; 0.49% of 400,000 active; AID 651635; Potency, µM (series often up to 56.7 µM), most hits filed as cytotoxic; note: potency is the fitted concentration of half-maximal effect; nearly all actives have a fitted effect of over 40% in size
HT1080NT lethal: kills 2HG-producing HT-1080-NT fibrosarcoma cells. Potency, µM (top dose mostly 46.1 µM), inactives show at the highest dose activity, negative = less viability, most hits filed as cytotoxic. 1.6% of 360,000 active. AID 686970. HT-1080-NT fibrosarcoma viability, CellTiter-Glo ATP luminescence, 48 h;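 note: NT is the 2HG producing partner of a matched IDH1 knockdown line; potency is the fitted concentration of half-maximal effect; 0% = DMSO-treated cells and -100% = media-only wells without cells; nearly all actives have a fitted effect of over 55% in size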
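Read-out is CellTiter-Glo luminescence after 10 minutes at room temperature, following 48 hours' compound treatment of HT-1080-NT cells (750 cells/well, RPMI, 5% FBS, 37 degrees C).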
* = called active by the depositor; i = inactive; ? = inconclusive; · = no result given; & = joins results of further samples; [ ] = dose if it differs, or a comment. Unless noted, calls come from the whole dose curve; as a rule, active = well fitted curve in the direction sought with a large enough effect; inconclusive = small, poorly fitted or top-dose-only effect, or another doubt; inactive = no such curve, though single readings can be large; an effect the other way counts as inactive or inconclusive.

[1] CC(CC1c2ccccc2CCc2ccccc21)CN(C)C (stereo unspecified)
[2] O=C(Nc1ccccc1)OCC(CN1CCCCC1)OC(=O)Nc1ccccc1 (stereo unspecified)
[3] COc1ccc([C@H]2CC(=O)C=C(c3ccc4c(c3)OCO4)C2)cc1
[4] CCN(CC)CCOc1ccc(C(O)(Cc2ccc(Cl)cc2)c2ccc(C)cc2)cc1 (stereo unspecified)
[5] CN1C2CCC1CC(OC(c1ccccc1)c1ccccc1)C2 (stereo unspecified)
[6] C[C@H]1[C@H](C)CC[C@]2(C(=O)O)CC[C@]3(C)C(=CC[C@@H]4[C@@]5(C)CC[C@H](O)C(C)(C)[C@@H]5CC[C@]43C)[C@H]12
[7] CCN(CC)CCNC(=O)c1c(C)[nH]c(/C=C2\C(=O)Nc3ccc(F)cc32)c1C
[8] Cc1c(C)n(CCN(C)C)c2ccc(C(=O)OCCN(C)C)cc12
entry no. | 1 | 2 | 3 | 4 | 5 | 6 | 7 | 8
SW480 rerep | · | 16.4% | -7.1% | ? | ? | 22.1% | -0.2% | 26.1%&2.5%
IL-1B inflam inh | · | ? | -15.6 | · | ? | 10.6 | · | -25.0
HT1080 IDH1KD tx | · | 0.8% | 10.3% | · | ? | 16.6% | · | ?
ATXN viability | ? | i | i | ? | i | i | i | ?
HT1080NT lethal | · | 42.8% | 12.3% | · | -21.4% | ? | · | ?

Exported as labelled records: part of the list above.
4	CCN(CC)CCOc1ccc(C(O)(Cc2ccc(Cl)cc2)c2ccc(C)cc2)cc1 (stereo unspecified)
  SW480 rerep: ?; IL-1B inflam inh: ·; HT1080 IDH1KD tx: ·; ATXN viability: ?; HT1080NT lethal: ·

5	CN1C2CCC1CC(OC(c1ccccc1)c1ccccc1)C2 (stereo unspecified)
  SW480 rerep: ?; IL-1B inflam inh: ?; HT1080 IDH1KD tx: ?; ATXN viability: i; HT1080NT lethal: -21.4%

6	C[C@H]1[C@H](C)CC[C@]2(C(=O)O)CC[C@]3(C)C(=CC[C@@H]4[C@@]5(C)CC[C@H](O)C(C)(C)[C@@H]5CC[C@]43C)[C@H]12
  SW480 rerep: 22.1%; IL-1B inflam inh: 10.6; HT1080 IDH1KD tx: 16.6%; ATXN viability: i; HT1080NT lethal: ?

7	CCN(CC)CCNC(=O)c1c(C)[nH]c(/C=C2\C(=O)Nc3ccc(F)cc32)c1C
  SW480 rerep: -0.2%; IL-1B inflam inh: ·; HT1080 IDH1KD tx: ·; ATXN viability: i; HT1080NT lethal: ·

Remaining list, next part.
[9] CC(C)C[C@H](NC(=O)[C@H](CCc1ccccc1)NC(=O)CN1CCOCC1)C(=O)N[C@@H](Cc1ccccc1)C(=O)N[C@@H](CC(C)C)C(=O)[C@@]1(C)CO1
[10] CC(C1=C(CCN(C)C)Cc2ccccc21)c1ccccn1 (stereo unspecified)
[11] CC1CCCCN1CCCOC(=O)c1ccc(OC2CCCCC2)cc1 (stereo unspecified)
[12] CC(C)(C)c1ccc(C(=O)CCCN2CCC(OC(c3ccccc3)c3ccccc3)CC2)cc1
[13] CC(CCc1ccccc1)NCC(O)c1ccc(O)c(C(N)=O)c1 (stereo unspecified)
[14] Cc1ccccc1C(OCCN(C)C)c1ccccc1 (stereo unspecified)
[15] O=c1[nH]c(=O)n(C(c2ccccc2)(c2ccccc2)c2ccccc2)cc1N(CCO)CCO
[16] C#CCN(C)CCCOc1ccc(Cl)cc1Cl
entry no. | 9 | 10 | 11 | 12 | 13 | 14 | 15 | 16
SW480 rerep | · | -0.4% | · | -2.9% | 3.1%&-10.7% | 0.6%&-2.0%&-3.7%&-41.3% | 0.5% | 12.6%&-3.5%&3.3%
IL-1B inflam inh | · | ? | · | · | -10.8 | -7.2&-1.9 | -50.6* | -6.2
HT1080 IDH1KD tx | · | -1.8% | · | · | -0.8% | -0.3%&-15.2% | 8.8% | 8.7%
ATXN viability | ? | ? | ? | i | i | i | i | i
HT1080NT lethal | · | -1.1% | · | · | -0.9% | 0.8%&2.5% | 5.4% | ?

[17] O=C(C[C@H]1C(=O)N(c2ccc(F)c(F)c2)C[C@@H]1Cc1ccccc1)Nc1ccccc1
[18] CN1CCC(N(Cc2cccs2)c2ccccc2)CC1
[19] CN(C(=O)CN(CCO)CC(=O)N(C)C(C)(C)Cc1ccccc1)C(C)(C)Cc1ccccc1
[20] CC(C(O)c1ccc(O)cc1)N1CCC(Cc2ccccc2)CC1 (stereo unspecified)
entry no. | 17 | 18 | 19 | 20
SW480 rerep | -9.6% | · | -54.9%[inhibitor] | -44.6%&-7.8%&-27.5%[inhibitor]
IL-1B inflam inh | -1.7 | · | ? | ?
HT1080 IDH1KD tx | 11.5% | · | 9.6% | ?
ATXN viability | i | i | ? | i
HT1080NT lethal | 18.8% | · | 22.6% | ?

Of the compounds above, these have fluorine.
[7] CCN(CC)CCNC(=O)c1c(C)[nH]c(/C=C2\C(=O)Nc3ccc(F)cc32)c1C
[17] O=C(C[C@H]1C(=O)N(c2ccc(F)c(F)c2)C[C@@H]1Cc1ccccc1)Nc1ccccc1
entry no. | 7 | 17
SW480 rerep | -0.2% | -9.6%
IL-1B inflam inh | · | -1.7
HT1080 IDH1KD tx | · | 11.5%
ATXN viability | i | i
HT1080NT lethal | · | 18.8%

Screens deposited in PubChem BioAssay by National Center for Advancing Translational Sciences (NCATS).

Some of the compounds tested. The share of hits here may be higher or lower than overall.
